TRPML1 blocker: inhibitors of human TRPML1 channel; Q9GZU1; TRPML1-inducible cells, Ca2+ dye fluorescence, FDSS; hits give low values; inhibition of EC80 agonist-evoked calcium signal; activity change, negative = inhibition, % (test concentration not listed); 0.02% of 390,000 active; AID 624415; in the data active means activity change below about -50%; inconclusive means about -30% to -50%; inactive means above about -30%;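 also: stimulus is agonist 54-4 at its EC80 concentration; % is scaled to controls: 0 for no effect and ±100 for the full control effect; compound concentration not given in the record; the text of the record puts the active cut at -80%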
Target sequence (Q9GZU1 whole entry, looked up): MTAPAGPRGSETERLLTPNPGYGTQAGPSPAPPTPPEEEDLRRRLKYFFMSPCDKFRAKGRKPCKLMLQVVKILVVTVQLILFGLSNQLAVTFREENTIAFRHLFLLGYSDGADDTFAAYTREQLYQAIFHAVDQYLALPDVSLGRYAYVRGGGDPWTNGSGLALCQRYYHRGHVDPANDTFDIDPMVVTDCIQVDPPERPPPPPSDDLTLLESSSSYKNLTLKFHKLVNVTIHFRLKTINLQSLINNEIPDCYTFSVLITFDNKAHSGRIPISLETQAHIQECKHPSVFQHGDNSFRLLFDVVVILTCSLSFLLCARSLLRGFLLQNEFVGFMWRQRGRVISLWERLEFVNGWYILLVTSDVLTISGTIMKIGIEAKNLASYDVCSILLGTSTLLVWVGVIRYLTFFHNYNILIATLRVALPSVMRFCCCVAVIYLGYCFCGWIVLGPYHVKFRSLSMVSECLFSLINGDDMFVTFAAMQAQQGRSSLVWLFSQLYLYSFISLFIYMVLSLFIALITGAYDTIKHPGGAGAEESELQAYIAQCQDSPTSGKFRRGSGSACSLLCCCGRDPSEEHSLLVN
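TRPML1-DL cells, Tet-induced overnight (~16 h, 37 °C) at 1,500 cells/well, were loaded with Ca8 no-wash dye plus quencher for 45-90 min at room temperature. Compounds were pinned during FDSS kinetic reading; agonist 54-4 at EC80 (4 uM final) then added.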
PINK1 modulator: changes PINK1 expression | PINK1 immunofluorescence, high-content cytometry, 24 h | 0.2% of 410,000 active | Potency, µM (highest dose often 76.6 µM), without a hit: top-dose activation (PINK1 increase), hits mostly activators | AID 624263; active = well fitted activation curve with a large enough effect; inconclusive = small, poorly fitted or top-dose-only effect; inactive = flat fitted curve, though single readings scatter; cell line not stated here;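 also: potency is read from the fitted curve at half-maximal effect; % of control where 0% means no effect; nearly all actives have a fitted effect of over 65% in size; a mitochondrial uncoupler was the plate control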
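Fluorescence from anti-PINK1 antibody, together with nuclear and cell stains, was scanned on a laser-scanning cytometer. Before staining, stable-line cells were incubated 24 hours with compounds at 5 concentrations; primary antibody 12 h at 10 degrees C.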
D2 agonist: human D2 receptor agonism in beta-arrestin assay; P14416; DiscoveRx PathHunter D2 beta-arrestin, luminescence, 90 min; 100% = 57 uM dopamine signal; activation, % (test concentration not listed); 0.084% of 360,000 active; AID 624465; in the data active = activation above about 40%; inconclusive = about 15% to 40%; inactive = below about 15%; also: compound concentration not given in the record; the text of the record calls up to 30% inactive
Target sequence (P14416 whole entry, looked up): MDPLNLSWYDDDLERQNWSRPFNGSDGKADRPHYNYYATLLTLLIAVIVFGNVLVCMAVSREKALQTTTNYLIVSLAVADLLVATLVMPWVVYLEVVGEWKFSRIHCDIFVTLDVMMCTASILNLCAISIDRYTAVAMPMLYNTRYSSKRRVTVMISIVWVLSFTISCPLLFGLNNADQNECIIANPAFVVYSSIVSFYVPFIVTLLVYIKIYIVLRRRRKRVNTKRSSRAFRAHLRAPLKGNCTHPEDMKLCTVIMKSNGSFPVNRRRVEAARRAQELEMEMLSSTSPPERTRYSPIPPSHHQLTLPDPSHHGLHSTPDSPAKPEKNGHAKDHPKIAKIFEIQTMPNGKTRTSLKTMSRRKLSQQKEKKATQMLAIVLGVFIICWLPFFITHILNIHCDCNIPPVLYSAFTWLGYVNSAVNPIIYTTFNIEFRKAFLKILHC
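Agonist mode: compounds alone added to overnight-plated D2 PathHunter cells for 90 min at 37 C, with 57 uM final dopamine (EC100) defining full response. Beta-arrestin recruitment detected by chemiluminescent reagent, read after 1 h at ambient temperature.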
Six1-Eya2 blk: inhibitors of human Six1/Eya2 interaction; Q15475+O00167; AlphaScreen GST-Six1/His-Eya2 binding, biochemical; hits give low values; control for the full effect not named in the record; activity change, % (concentration not given with the values); 0.56% of 360,000 active; in the data active = activity change below about -65%; inconclusive = about -30% to -65%; inactive = above about -30%; also: % is scaled to controls: 0 for no effect and ±100 for the full control effect
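AlphaScreen luminescence read after one hour at 37 °C in darkness. Pin-transferred compounds met GST-Six1 and His-Eya2 protein (5X stock 250 nM/500 nM) plus glutathione donor and Ni-chelate acceptor beads (5X, 50 ug/mL).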
TRPML1 agonist: activates the human TRPML1 channel | Q9GZU1 | TRPML1-expressing cells, Ca2+ dye fluorescence, FDSS; host cell line not named in the record; reference of the full effect not given here | activation, % (no concentration beside the values) | 0.12% of 410,000 active; in the data active = activation above about 50%; inconclusive = about 30% to 50%; inactive = below about 30%; also: 0% is about no effect; the text of the record puts the active cut at 80%
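Agonist activity was taken from a 110 s kinetic Ca2+ dye read on the FDSS after pinning compounds onto TRPML1-DL cells. The cells were seeded at 1,500/well with Tet inducer, incubated about 16 h, then dye-loaded at room temperature.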
D2 PAM: positive allosteric modulators of human D2 dopamine receptor. DiscoveRx D2 beta-arrestin cells, luminescence, 90 min; 100% = 57 uM dopamine signal. potentiation, % (concentration not given with the values). 0.23% of 360,000 active. AID 624464; active = potentiation of 50% or more; inconclusive = 30% to 50%; inactive = 30% or less;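 also: compound concentration not given in the record; tested on top of an EC20 dose of dopamine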
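PathHunter beta-arrestin assay in DiscoveRx D2 cells. Compounds were added with an EC20 of dopamine (50 nM final) for 90 min at 37 deg C. Luminescence was read 1 h after detection reagent, with 57 uM dopamine as the EC100 control.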
Active calls of the source: *; u = inconclusive; x = not tested or not shown; & = joins results of further samples; [ ] = another dose, or the depositor's remark.

SMILES	TRPML1 blocker	PINK1 modulator	D2 agonist	Six1-Eya2 blk	TRPML1 agonist	D2 PAM
CC1CCN(C(=O)c2[nH]cnc2C(=O)N2CCN(C(=O)OC(C)(C)C)CC2)CC1	33	1.4%	-1.2	2	-0.2	-10
CCCn1c(N)c(N(CCOC)C(=O)c2cccc(F)c2)c(=O)[nH]c1=O	-5	1.8%	-3.8	-17	-0.6	-4
COc1ccc(/C=N/NC(=O)c2ccco2)cc1Cn1nc(C)cc1C	-15	0.2%	-2.8	1	-0.5	-6
COc1ccc(Br)c(C(=O)Nc2cccc(Cl)c2Cl)c1	-1	4.8%	-2.0	17	1.6	-3
C[C@H](O)[C@@H]1CN2CCc3c([nH]c4ccccc34)[C@@H]2C[C@@H]1N(C)C(=O)OCc1ccccc1	x	2.7%	11	-12	0.8	-16
Cc1ccn2c(=O)nc(SCC(=O)N3CCC(C)CC3)nc2c1	2	0.3%	2.1	-3	0.2	5
CCn1cc(CNCc2c(C(=O)N3CCCCC3)nc3c(C)cccn23)cn1	-3	-1.4%	-2.4	-1	3.3	-15
Cc1ccc(S(=O)(=O)N2CCCN(C)CC2)cc1	28	3.9%	2.3	5	-0.4	2
CCCCc1nn2c(=O)cc(COC(=O)c3cccc(NC(=O)c4cccc(Cl)c4)c3)nc2s1	10	1.1%	x	x	-0.7	x
CCOC(=O)C(CC)Sc1cc(C)nc2ccc(OC)cc12 (configuration not stated)	5	3.3%	-3.5	1	1.2	-12
Cc1nc2sc(C(=O)N(C)c3ccccc3)c(NC(=O)c3ccccc3Cl)c2c(C)c1C	-7	4.4%	x	x	3.2	x
CC/C(=N\NC(=O)c1csc(C)c1C)c1cccs1	-1	-1.4%	-3.4	0	-1.0	-29
Cc1cc(C)cc(C(=O)NCc2ccc3c(c2)OCO3)c1	3	0.3%	-0.6	-2	0.8	-1
COc1ccc(Cl)cc1NC(=O)C1CCCN(S(=O)(=O)c2cccc3nonc23)C1 (configuration not stated)	3	27%	-1.8	-7	-1.3	-3
CCC(=O)NC(c1ccccc1)c1c(OC(C)=O)ccc2ccccc12 (configuration not stated)	4	1.5%	1.2	10	-0.1	-4
CCCCN(C(=O)CSCC(=O)Nc1ccc(C)cc1)c1c(N)n(CC(C)C)c(=O)[nH]c1=O	5	-1.0%	3.0	4	0.1	-4
Cc1ccc2oc(=O)n(CCCOc3ccc(Cl)cc3)c2c1	-5	18%	x	x	2.5	x
CCCN1CCc2[nH]c(=S)[nH]c(=O)c2C1	1	15%	-4.4	-2	-0.3	-22
CC(C)(C)C1CCc2c(sc(NC(=O)c3cc(-c4ccc(F)cc4)on3)c2C#N)C1 (configuration not stated)	6	-0.1%	x	x	1.9	x
CCCNC(=O)CN1C(=O)NC2(CCCc3cc(OC)ccc32)C1=O (configuration not stated)	8	u	3.1	6	1.6	4
Cc1cccc(N2CCN(C(=O)COCc3cc(-c4ccc5c(c4)OCO5)on3)CC2)c1C	-21&-22	-1.5%&-0.5%	0.8	2	-0.3&-0.2	-16
COc1cc2c(cc1OC)C(c1cccc([N+](=O)[O-])c1)N(C(=O)CCC(=O)O)CC2 (configuration not stated)	7	-0.9%	-2.3	8	1.2	-5
CCCCCCC(C)n1[nH]c(=O)cc1N (configuration not stated)	3	-1.3%	-1.3	4	1.3	2
O=C(COCc1cc(-c2ccco2)on1)Nc1cc(Cl)ccc1O	-3	1.5%	x	x	1.8	x
Cc1coc2cc3oc(=O)c(CC(=O)NCCc4ccccc4)c(C)c3cc12	11	0.9%	x	x	-0.9	x

The list goes on; the last 2 above are carried over.
SMILES	TRPML1 blocker	PINK1 modulator	D2 agonist	Six1-Eya2 blk	TRPML1 agonist	D2 PAM
O=C(COCc1cc(-c2ccco2)on1)Nc1cc(Cl)ccc1O	-3	1.5%	x	x	1.8	x
Cc1coc2cc3oc(=O)c(CC(=O)NCCc4ccccc4)c(C)c3cc12	11	0.9%	x	x	-0.9	x
C[C@@H]1O[C@@H](O[C@H]2[C@H](O)[C@@H](O)[C@H](Oc3c(-c4ccc(O)c(O)c4)oc4cc(O)cc(O)c4c3=O)O[C@@H]2CO)[C@H](O)[C@H](O)[C@H]1O	1	2.7%	-1.1	-9	-0.5	-1
NC(=O)CSc1nnc(COc2ccccc2)n1N	20	-0.1%	-5.3	4	-0.4	-15
O=C(C[C@H]1C[C@H](C(=O)N2CCCCC2)[C@@]2(CCc3ccccc3)c3[nH]c4ccc(Cl)cc4c3CCN2C1=O)NCc1ccco1	-2	5.8%	2.5	-11	-0.4	x
CCc1ccccc1NC(=O)c1ccoc1C	-17	-1.0%	0.6	6	-0.2	-4
NS(=O)(=O)c1ccc(CNC(=O)c2cc(S(=O)(=O)N3CCOCC3)ccc2N2CCCC2)cc1	5	1.7%	-0.1	4	-0.1	-2
COc1ccc(NC(=O)CSc2nc(C)cs2)cc1	19	2.4%	1.9	-2	-0.5	-4
CCc1ccc(C(C)NC(=O)/C=C/c2ccc(Br)cc2)cc1 (configuration not stated)	2	12%[38.3 µM]	0.3	2	0.2	-10
Oc1cccc(-n2nnnc2SCc2ccccc2F)c1	15	-0.7%	7.0	2	2.5	-1
CC(=O)Nc1ccc(C(=O)NNC(=O)CCc2ccccc2)cc1	-5	11%[38.3 µM]	0.3	1	0.3	-11
CCOC(=O)[C@@H]1[C@H]2COc3ccccc3[C@@H]2N2C(=O)N(c3ccc(F)cc3)C(=O)[C@]12C	9	-0.9%	-4.9	7	0.1	-6
CS(=O)(=O)N(CC(=O)N1CCCC1)Cc1ccc(Cl)cc1	-14	-0.4%	-0.6	8	0.1	-7
CCCCNC(=O)C1CCCN(S(=O)(=O)c2ccc(S(=O)(=O)NCC(C)C)cc2)C1 (configuration not stated)	10	0.0%[38.3 µM]	-1.9	1	-0.6	-14
CC(C)(C)OC(=O)NCc1nc(N)n[nH]1	7	1.3%	0.7	1	-0.4	7
C=CCN(CC=C)C(=O)c1cccc(S(=O)(=O)N2c3ccccc3CC2C)c1 (configuration not stated)	38	-0.8%	-1.1	-4	2.9	-8
CC(C)CC(c1nnnn1CC1CCCO1)N1CCN(Cc2ccc3c(c2)OCO3)CC1 (configuration not stated)	39	-2.0%	-3.7	3	1.4	-32
COc1ccccc1OCCNC(=O)c1ccc(NC(=O)CC2SC(N3CCCC3)=NC2=O)cc1 (configuration not stated)	38	-0.9%	1.2	4	0.2	-1
CC(=O)Nc1ccc(S(=O)(=O)N[C@@H](C)C(=O)OCc2ccc(Cl)cc2)cc1	16	2.6%	-3.8	0	-0.2	-4
Cc1nn(CCC(=O)Nc2ccc(Cl)cc2)c(C)c1S(=O)(=O)N1CCCCC1	-13	0.2%	x	x	0.3	x
CC(C)(C)OC(=O)C[C@@H]1C/C=C\C[C@H](CC(=O)NCCO)C(=O)NC[C@@H](c2ccccc2)OC1=O	31	-0.2%	-4.1	-1	-0.3	-6
CN(C)CCCCCNCCCNC(=O)/C=N\O	-8	-1.1%[38.3 µM]	2.1	2	0.6	9
Cc1cc(=O)n(CC(=O)NC(C)c2ccccc2)c2c1c(C)nn2-c1cccc(F)c1 (configuration not stated)	13	1.2%	x	x	1.8	x
COc1cc(C(c2c(C)[nH][nH]c2=O)c2c(C)[nH][nH]c2=O)ccc1OC(=O)c1cccc([N+](=O)[O-])c1	-12	-2.0%	0.7	7	-0.8	-8
CC1CCCN(C(=O)c2ccc(OC3CCN(CCc4ccccc4)CC3)cc2)C1 (configuration not stated)	8	0.3%	-5.6	-5	0.7	-19
OCCN(CCO)c1nc(-c2ccccc2)nc2c1oc1ccccc12	-8	2.5%	0.4	-19	1.0	-1
Cc1cc(C)n2nc(Nc3ccccc3)cc2n1	5	x	-2.2	10	0.4	-1

By substructure, the entries above with an NH in an aromatic ring.
SMILES	TRPML1 blocker	PINK1 modulator	D2 agonist	Six1-Eya2 blk	TRPML1 agonist	D2 PAM
CC1CCN(C(=O)c2[nH]cnc2C(=O)N2CCN(C(=O)OC(C)(C)C)CC2)CC1	33	1.4%	-1.2	2	-0.2	-10
CCCn1c(N)c(N(CCOC)C(=O)c2cccc(F)c2)c(=O)[nH]c1=O	-5	1.8%	-3.8	-17	-0.6	-4
C[C@H](O)[C@@H]1CN2CCc3c([nH]c4ccccc34)[C@@H]2C[C@@H]1N(C)C(=O)OCc1ccccc1	x	2.7%	11	-12	0.8	-16
CCCCN(C(=O)CSCC(=O)Nc1ccc(C)cc1)c1c(N)n(CC(C)C)c(=O)[nH]c1=O	5	-1.0%	3.0	4	0.1	-4
CCCN1CCc2[nH]c(=S)[nH]c(=O)c2C1	1	15%	-4.4	-2	-0.3	-22
CCCCCCC(C)n1[nH]c(=O)cc1N (configuration not stated)	3	-1.3%	-1.3	4	1.3	2
O=C(C[C@H]1C[C@H](C(=O)N2CCCCC2)[C@@]2(CCc3ccccc3)c3[nH]c4ccc(Cl)cc4c3CCN2C1=O)NCc1ccco1	-2	5.8%	2.5	-11	-0.4	x
CC(C)(C)OC(=O)NCc1nc(N)n[nH]1	7	1.3%	0.7	1	-0.4	7
COc1cc(C(c2c(C)[nH][nH]c2=O)c2c(C)[nH][nH]c2=O)ccc1OC(=O)c1cccc([N+](=O)[O-])c1	-12	-2.0%	0.7	7	-0.8	-8

Additional structures
SMILES	TRPML1 blocker	PINK1 modulator	D2 agonist	Six1-Eya2 blk	TRPML1 agonist	D2 PAM
CCOc1ccc(C(=O)NCCCN2CCCC2=O)cc1	-14	-0.2%	-3.7	-1	2.6	-17
COC(=O)C1CCN(C(=O)Cc2c(OC)ccc3cc(Br)ccc23)CC1	-8	1.8%	-6.1	20	-0.8	-16
COc1ccc(-n2ncc3c2CC(C)(C)CC3NC(=O)CCCN2CCCC2=O)cc1 (configuration not stated)	-5	-1.9%	2.3	5	-0.2	-5
O/N=C(\c1ccc(Cl)cc1)c1cc2ccccc2o1	-1	u	0.7	-3	-0.2	0
O=C1Nc2ccccc2C1=O	x	0.2%	-19	7	x	-72
Cc1ccc(CN2CCN(Cc3cn[nH]c3-c3cccc(F)c3)CC2CCO)o1 (configuration not stated)	10	-0.8%	-1.4	-3	-0.6	-8
C[C@@H]1CCC(=O)N(CC[C@H](Sc2ccc(Br)cc2)c2ccccc2)CC1	-4	-0.1%	1.5	5	0.2&2.9	-50
COc1cc(C(=O)Oc2ccccc2/C=N/NC(=O)c2ccc(Cl)cc2Cl)cc(OC)c1OC	15	-0.1%	-2.9	-24	2.1	-12
CCOc1ccc(NC(=O)Nc2cccn(Cc3ccccc3)c2=O)cc1	-4	-1.3%	1.7	-19	-0.4	-3
CCN(CC)CCNC(=O)C(=O)Nc1ccc(C(=O)OC)cc1	3	4.1%	-2.9	3	-0.3	-16
CCOC(=O)N1CCN(c2c(N3CCN(c4cccc(C(F)(F)F)c4)CC3)c(=O)c2=O)CC1	-3	0.7%[38.3 µM]	-2.1	3	-0.1	-11
O=C(Nc1ccc(F)cc1)c1cccc(NC(=O)C2C3CC4OC(=O)C2C4C3)c1 (configuration not stated)	-11	-1.4%	-1.2	0	0.1	5
CCOc1ccc(-n2cc(-c3ccccc3)c3c(=O)[nH]cnc32)cc1	7	-2.1%	0.9	1	3.5	-9
CCc1ccc(C(=O)COC(=O)c2cnc(C)cn2)cc1	14	0.4%	-5.4	0	-0.3	-2
